Screening data as filed in PubChem.
VCAM-1 up imaging: boosters of cytokine-driven VCAM-1 levels – imaging, high-content imaging, pooled HUVEC, TNFa stimulus (AID 457). calls only. Pooled HUVEC, TNFa-induced VCAM-1 immunofluorescence imaging; hits of this screen are not shown here. 10,000 compounds, 0.2% hits;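 active = a top-ranked rise in VCAM-1 staining upheld on image or statistical review; inactive = the rest, including candidates rejected on review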;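 also: compounds tested at 5 µM in the well; cells exposed to compound for 24 hours before fixing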
FPR binder: binds the human formylpeptide receptor FPR; P21462; FPR-expressing cells, fluorescent ligand binding, flow cytometry; inhibition, %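 (tested at 6.7 µM)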; 24,000 compounds, 0.74% hits; AID 440;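 also: 0% = buffer wells and 100% = receptor blocker peptide wells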
Target sequence (P21462 whole entry, looked up): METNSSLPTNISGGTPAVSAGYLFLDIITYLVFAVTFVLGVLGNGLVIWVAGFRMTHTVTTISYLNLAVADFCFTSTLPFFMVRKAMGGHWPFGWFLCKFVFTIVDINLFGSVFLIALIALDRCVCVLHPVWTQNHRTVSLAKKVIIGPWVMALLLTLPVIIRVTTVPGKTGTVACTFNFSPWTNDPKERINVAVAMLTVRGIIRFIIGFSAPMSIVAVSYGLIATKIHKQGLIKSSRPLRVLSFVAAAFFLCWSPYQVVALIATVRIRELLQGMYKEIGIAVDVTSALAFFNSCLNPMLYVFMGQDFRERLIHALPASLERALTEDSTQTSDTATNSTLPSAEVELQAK
VCAM-1 inhibition: suppression of endothelial VCAM-1 upregulation – cell-based, plate reader, pooled HUVEC, TNFa stimulus (AID 454) | HUVEC TNFa-induced VCAM-1 surface immunofluorescence, plate reader; numbers were filed only for top-ranked candidate wells | inhibition, % at 5 µM | 10,000 compounds, 0.2% hits;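 active = compound among top-ranked inhibitors of TNF-induced VCAM-1 adhesion protein staining, with the hit upheld by image or statistical review; inactive = the rest, including hits rejected on review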;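 also: 0% = TNFa with vehicle and 100% = cells without TNFa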
VCAM-1 down imaging: inhibitors of TNFa-induced VCAM-1 surface display, imaging, high-content imaging, pooled HUVEC, TNFa stimulus (AID 456). 10,000 compounds, 0.2% hits. inhibition, % at 5 µM; hits with a dose series show IC50 in µM. HUVEC TNFa-induced VCAM-1 surface expression, immunofluorescence imaging; numbers were filed only for top-ranked candidate wells;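 active = top tenth filtered wells with inhibition above zero that passed visual or statistical confirmation; inactive = the rest, including hits rejected on review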;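 also: 0% = stimulated vehicle wells and 100% = unstimulated cells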
FPRL1 ligand: ligands of human FPRL1, also counter-screen for FPR ligands; FPRL1-expressing cells, fluorescent ligand binding inhibition, flow cytometry; 24,000 compounds, 0.3% hits; inhibition, %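 (tested at 6.7 µM)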; P25090;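 also: 0% = buffer alone and 100% = receptor blocker peptide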
Target sequence (P25090 whole entry, looked up): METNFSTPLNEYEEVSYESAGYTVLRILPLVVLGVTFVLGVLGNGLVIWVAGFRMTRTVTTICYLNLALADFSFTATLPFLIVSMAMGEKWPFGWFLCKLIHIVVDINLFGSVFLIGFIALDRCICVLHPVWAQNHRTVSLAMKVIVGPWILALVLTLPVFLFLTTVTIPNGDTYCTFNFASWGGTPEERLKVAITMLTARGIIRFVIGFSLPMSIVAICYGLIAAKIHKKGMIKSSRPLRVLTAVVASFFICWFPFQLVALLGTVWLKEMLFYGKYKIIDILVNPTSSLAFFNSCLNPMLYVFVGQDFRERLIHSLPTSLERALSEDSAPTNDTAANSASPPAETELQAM
Active calls of the source: *.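 The calls were made as follows, unless noted: active = mean above 30%; inconclusive = self-fluorescent; inactive = the rest.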 Some of the compounds tested, so the mix of outcomes need not match the whole.

`O=S(=O)(NCCN1CCCC1)c1cccc2cccnc12` gave FPR binder -1 and FPRL1 ligand 16.
`O=C(CCCCCn1c(=S)[nH]c2cc3c(cc2c1=O)OCO3)N1CCN(C2CCCCC2)CC1` gave FPR binder -6 and FPRL1 ligand 0.
`Cc1cc(N)ccc1NC(=O)c1ccccc1` gave FPR binder -4 and FPRL1 ligand 5.
Screening Cc1cccc(NC2=NC3(CCCCC3)N=C(N)N2)c1 returned FPR binder -4 and FPRL1 ligand -4.
For COc1ccc(N(CC(=O)N2CCN(c3ccccc3)CC2)S(=O)(=O)c2c(C)noc2C)cc1 the results were FPR binder -1 and FPRL1 ligand -6.
CN(C)CCCNC(=O)c1ccc2[nH]c3ccccc3c2c1 was read as FPR binder 4 and FPRL1 ligand 3.
COc1ccccc1NC(=O)CN1CCN(CC(=O)Nc2ccc(F)cc2)CC1 was read as FPR binder 1 and FPRL1 ligand -15.
`CCCCN(C)S(=O)(=O)c1ccc(C(=O)Nc2nnc(-c3cccs3)o2)cc1` gave FPR binder -2 and FPRL1 ligand -1.
Screening O=C(NCCCN1CCCC1=O)c1ccc2c(=O)n(Cc3ccco3)c(=S)[nH]c2c1 returned VCAM-1 up imaging inactive, FPR binder -3, VCAM-1 inhibition inactive, VCAM-1 down imaging inactive and FPRL1 ligand 7.
CCCCNC(=O)NS(=O)(=O)c1ccc(C)cc1 was read as VCAM-1 up imaging inactive, FPR binder -1, VCAM-1 inhibition inactive, VCAM-1 down imaging inactive and FPRL1 ligand 5.
`CCOc1ccc(C2CC(c3cccc(C)c3)n3ncnc3N2)cc1` (stereo not drawn) gave VCAM-1 up imaging inactive, FPR binder 4, VCAM-1 inhibition inactive, VCAM-1 down imaging inactive and FPRL1 ligand 8.
COc1cccc(-n2nnc3c(=O)n(CC(=O)OCc4ccccc4)cnc32)c1 was read as FPR binder -2 and FPRL1 ligand 1.
Screening Cc1cc(NC(=O)c2cc(-c3ccco3)on2)no1 returned FPR binder 12 and FPRL1 ligand 6.
Screening CN(C)S(=O)(=O)c1ccc(Oc2ccc(S(=O)(=O)N(C)C)cc2)cc1 returned VCAM-1 up imaging inactive, FPR binder -2, VCAM-1 inhibition inactive, VCAM-1 down imaging inactive and FPRL1 ligand 0.
For CCOC(=O)c1cnn(-c2sc(C(=O)OCC)c(C)c2C(=O)OCC)c1N the results were VCAM-1 up imaging inactive, FPR binder -9, VCAM-1 inhibition inactive, VCAM-1 down imaging inactive and FPRL1 ligand 4.
Screening O=C1Nc2ccccc2C(O)(C(=O)NC2CC2)N1c1ccc(Cl)c(Cl)c1 (stereo not drawn) returned FPR binder -2 and FPRL1 ligand -6.
CCOc1ccc(NC(=O)c2ccncc2)cc1 was read as VCAM-1 up imaging inactive, FPR binder -3, VCAM-1 inhibition inactive, VCAM-1 down imaging inactive and FPRL1 ligand 2.
`COC(=O)c1cnc2c(C(F)(F)F)cccc2c1OC` gave VCAM-1 up imaging inactive, FPR binder 5, VCAM-1 inhibition inactive, VCAM-1 down imaging inactive and FPRL1 ligand 5.
For Cc1ccc(CNC(=O)CN(C)S(=O)(=O)c2cccc3nsnc23)cc1 the results were FPR binder 0 and FPRL1 ligand 6.
`Cn1cc(C(=O)NC2CCCCCC2)c(=O)c2cc(S(=O)(=O)N3CCCC3)ccc21` gave FPR binder -3 and FPRL1 ligand -2.
Cc1ccccc1-n1c(=O)c2ccccc2n2nnnc12 was read as VCAM-1 up imaging inactive, FPR binder -13, VCAM-1 inhibition inactive, VCAM-1 down imaging inactive and FPRL1 ligand 1.
CCS(=O)(=O)N1CCC(C(=O)NCc2ccccn2)CC1 was read as FPR binder 3 and FPRL1 ligand 16.
Cc1oc(-c2ccccc2)[n+]([O-])c1C was read as FPR binder -4 and FPRL1 ligand -8.
For Cc1ccc(Nc2cc(C)nc3ncnn23)c(Cl)c1 the results were VCAM-1 up imaging inactive, FPR binder 10, VCAM-1 inhibition inactive, VCAM-1 down imaging inactive and FPRL1 ligand 4.
Cc1ccc(-c2ccc(SCC(=O)Nc3nonc3C)nn2)cc1 was read as VCAM-1 up imaging inactive, FPR binder -4, VCAM-1 inhibition inactive, VCAM-1 down imaging inactive and FPRL1 ligand -4.
For CCOC(=O)C1CCCN(c2c(N3CCC(N4CCCCC4)CC3)c(=O)c2=O)C1 (stereo not drawn) the results were FPR binder 0 and FPRL1 ligand 3.
`Cc1ccc(S(=O)(=O)NC(CC(=O)N2CCc3ccccc32)c2ccco2)cc1` (stereo not drawn) gave FPR binder 5 and FPRL1 ligand 0.
Screening CCCOc1ccc(C2C(C(=O)c3ccc(C)o3)=C(O)C(=O)N2CCN2CCOCC2)cc1OC (stereo not drawn) returned FPR binder 8 and FPRL1 ligand -1.
`CCN(CCCNC(=O)c1ccc(N2CCCC2=O)cc1)c1cccc(C)c1` gave FPR binder 13 and FPRL1 ligand 0.
Screening COc1ccc(C(=O)N2CCN(c3ccc(C)c(C)c3)CC2)cc1OC returned FPR binder -3 and FPRL1 ligand -4.
`CCC(C)NC(=O)C1=C(C)C(=O)OC12CCC(C)CC2` (stereo not drawn) gave FPR binder -3 and FPRL1 ligand -4.
For O=C(CN1CCN(C(=O)c2c(F)cccc2F)CC1)Nc1ccccc1F the results were FPR binder -2 and FPRL1 ligand 15.
For COc1ccc(CNc2nc3nc(C)c(Cl)c(C)n3n2)cc1OC the results were VCAM-1 up imaging inactive, FPR binder -2, VCAM-1 inhibition inactive, VCAM-1 down imaging inactive and FPRL1 ligand 1.
For COc1ccc(-n2c(Cc3cccn3C)nnc2SCC(=O)Nc2ccc(C(C)=O)cc2)cc1 the results were FPR binder 4 and FPRL1 ligand 12.
`Cc1cccc(C)c1NC(=O)N1CCC(N2CCCCC2)CC1` gave FPR binder 0 and FPRL1 ligand 5.
For Cc1ccc(OC(=O)CCC(=O)OCCCC(F)(F)C(F)(F)F)cc1 the results were VCAM-1 up imaging inactive, FPR binder 2, VCAM-1 inhibition inactive, VCAM-1 down imaging inactive and FPRL1 ligand 3.
COc1ccc(CCNC(=O)CCS(=O)(=O)c2cccc3nsnc23)cc1OC was read as FPR binder 0 and FPRL1 ligand 1.
`Cc1ccc2c(c1)N(CCC(=O)NCC1CCCO1)C(=O)CO2` (stereo not drawn) gave FPR binder -1 and FPRL1 ligand -5.
Screening CCOC(=O)c1c(NC(=O)c2noc3c2CCCC3)sc2c1CCCC2 returned FPR binder -6 and FPRL1 ligand 0.
Screening CC(C)Nc1nc(-c2ccccc2)nc(-n2ccnc2)n1 returned FPR binder 3 and FPRL1 ligand 4.
Screening CC(=O)N1CCc2cc(Br)cc(S(=O)(=O)NCCCN3CCCC(C)C3)c21 (stereo not drawn) returned VCAM-1 up imaging inactive, FPR binder -3, VCAM-1 inhibition inactive, VCAM-1 down imaging inactive and FPRL1 ligand 3.
`CN(C1CCCCC1)S(=O)(=O)c1ccc(S(=O)(=O)N2CCN(CCC#N)CC2)cc1` gave VCAM-1 up imaging inactive, FPR binder -8, VCAM-1 inhibition inactive, VCAM-1 down imaging inactive and FPRL1 ligand -4.
Screening CCC(=O)OC1(C#CCOc2ccc(OC)cc2)CCN(C)CC1 returned VCAM-1 up imaging inactive, FPR binder 2, VCAM-1 inhibition inactive, VCAM-1 down imaging inactive and FPRL1 ligand 0.
For COCCNC(=O)CCn1nc(-c2ccc(Cl)cc2)ccc1=O the results were FPR binder -4 and FPRL1 ligand -3.
`O=C(NCC1CCCO1)C1CCN(c2ccc(S(=O)(=O)N3CCCC3)cc2)CC1` (stereo not drawn) gave VCAM-1 up imaging inactive, FPR binder -3, VCAM-1 inhibition inactive, VCAM-1 down imaging inactive and FPRL1 ligand 0.
CC1(C)CC(=O)c2c(-c3cccs3)n[nH]c2C1 was read as FPR binder -1 and FPRL1 ligand 1.
`CCN(CC)c1ccc(-c2nn3c(-c4cccnc4)nnc3s2)cc1` gave VCAM-1 up imaging inactive, FPR binder -4, VCAM-1 inhibition inactive, VCAM-1 down imaging inactive and FPRL1 ligand 9.
For CN(C)c1cccc(N=C2C=C(N3CCOCC3)CC(C)(C)C2)c1 the results were VCAM-1 up imaging inactive, FPR binder 0, VCAM-1 inhibition inactive, VCAM-1 down imaging inactive and FPRL1 ligand 1.
Screening CCCCN(CC)CCNC(=O)C1c2cc(OC)c(OC)cc2C(=O)N2CCc3ccccc3C12 (stereo not drawn) returned FPR binder -2 and FPRL1 ligand -2.
Screening COc1ccc2c(c1)c(CC(=O)OCC(=O)O)c(C)n2C(=O)c1ccc(Cl)cc1 returned VCAM-1 up imaging inactive, FPR binder -2, VCAM-1 inhibition inactive, VCAM-1 down imaging inactive and FPRL1 ligand -3.
CN(c1cccc(NC(=O)COc2ccccc2)c1)S(C)(=O)=O was read as VCAM-1 up imaging inactive, FPR binder 11, VCAM-1 inhibition inactive, VCAM-1 down imaging inactive and FPRL1 ligand 12.
Screening NC(=O)c1ccsc1NC(=O)COC(=O)Cc1ccsc1 returned VCAM-1 up imaging inactive, FPR binder -6, VCAM-1 inhibition inactive, VCAM-1 down imaging inactive and FPRL1 ligand -2.
For c1ccc(Nc2ccccc2Nc2ccccn2)nc1 the results were VCAM-1 up imaging inactive, FPR binder 13, VCAM-1 inhibition inactive, VCAM-1 down imaging inactive and FPRL1 ligand 9.
For Cc1ccc(N2CCN(CCc3nc4cc(NS(C)(=O)=O)ccc4n3C)CC2)cc1 the results were VCAM-1 up imaging inactive, FPR binder 1, VCAM-1 inhibition inactive, VCAM-1 down imaging inactive and FPRL1 ligand -1.
Cn1c(=O)c2c(nc(N3CCCCC3)n2CCCNC2=NCCCC2)n(C)c1=O was read as FPR binder -5 and FPRL1 ligand 1.
Cn1ccnc1SCC(=O)Nc1ccc2ccccc2c1 was read as VCAM-1 up imaging inactive, FPR binder -3, VCAM-1 inhibition inactive, VCAM-1 down imaging inactive and FPRL1 ligand 0.
Screening CC1=C(C(N)=O)C(c2cccnc2)n2nc(SCc3ccccc3Cl)nc2N1 (stereo not drawn) returned VCAM-1 up imaging inactive, FPR binder -4, VCAM-1 inhibition inactive, VCAM-1 down imaging inactive and FPRL1 ligand 1.
`O=C(NCCCn1ccnc1)Nc1ccc(Cl)cc1` gave FPR binder 1 and FPRL1 ligand -1.
`COc1ccc(CCN2C(=O)CC(N3CCOCC3)C2=O)cc1` (stereo not drawn) gave VCAM-1 up imaging inactive, FPR binder -2, VCAM-1 inhibition inactive, VCAM-1 down imaging inactive and FPRL1 ligand 5.
O=C(O)c1ccc(Cl)c(NC(=O)C2CCCN2S(=O)(=O)c2cccc3nsnc23)c1 (stereo not drawn) was read as FPR binder 0 and FPRL1 ligand 4.

Gathered by group: the compounds so far containing a thiophene ring, fused or not
`CCCCN(C)S(=O)(=O)c1ccc(C(=O)Nc2nnc(-c3cccs3)o2)cc1` gave FPR binder -2 and FPRL1 ligand -1.
For CCOC(=O)c1cnn(-c2sc(C(=O)OCC)c(C)c2C(=O)OCC)c1N the results were VCAM-1 up imaging inactive, FPR binder -9, VCAM-1 inhibition inactive, VCAM-1 down imaging inactive and FPRL1 ligand 4.
Screening CCOC(=O)c1c(NC(=O)c2noc3c2CCCC3)sc2c1CCCC2 returned FPR binder -6 and FPRL1 ligand 0.
CC1(C)CC(=O)c2c(-c3cccs3)n[nH]c2C1 was read as FPR binder -1 and FPRL1 ligand 1.
Screening NC(=O)c1ccsc1NC(=O)COC(=O)Cc1ccsc1 returned VCAM-1 up imaging inactive, FPR binder -6, VCAM-1 inhibition inactive, VCAM-1 down imaging inactive and FPRL1 ligand -2.

Next section:
COc1ccc(Cn2nnnc2C(c2ccccc2OC)N2CCC(C(N)=O)CC2)cc1 (stereo not drawn) was read as VCAM-1 up imaging inactive, FPR binder -5, VCAM-1 inhibition inactive, VCAM-1 down imaging inactive and FPRL1 ligand 12.
Screening O=C(Cc1ccc(-n2cccc2)cc1)NC1CCCCC1 returned FPR binder -4 and FPRL1 ligand 4.
For Cc1ccc(-n2c(Cc3cccn3C)nnc2SCC(=O)N2CCN(c3ccccc3)CC2)cc1 the results were FPR binder 14 and FPRL1 ligand 4.
For O=C(C1CCCN(Cc2cccs2)C1)N1CCCCCC1 (stereo not drawn) the results were FPR binder 6 and FPRL1 ligand 4.
Screening O=C(NCc1cccnc1)C1c2ccccc2C(=O)N1C1CCCCCC1 (stereo not drawn) returned FPR binder 62* and FPRL1 ligand 25.
Cc1nc(SCC(=O)Nc2ccccc2C(F)(F)F)c2c(=O)n(C)c(=O)n(C)c2n1 was read as VCAM-1 up imaging inactive, FPR binder -3, VCAM-1 inhibition inactive, VCAM-1 down imaging inactive and FPRL1 ligand -6.
For CCOC(=O)CSC1=C(C#N)C(c2ccccc2)C(C(C)=O)=C(C)N1 (stereo not drawn) the results were FPR binder -5 and FPRL1 ligand -10.
